Rango-impB inh = Rango-importin beta binding inhibition | 340,000 compounds, 0.031% hits | Potency, µM (titrated, usually from 92.2 µM), for the others: at the top dose inhibition of complex formation | Rango CFP/YFP FRET sensor + importin beta, 45 min | AID 540263 | Q14974; active = rising FRET ratio curve, often small or poorly fitted; inconclusive = mostly compound fluorescence or quenching in the first reads; inactive = flat curves in all reads;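 note: potency is the fitted concentration of half-maximal effect; 0% = DMSO wells and 100% = buffer wells lacking importin beta; nearly all actives have a fitted effect of over 15% in size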
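FRET biosensor (snurportin 1 IBB flanked by EYFP and cerulean), 50 nM, with compound 5 min, then 0.125 microM importin beta in PBS, 1 mM DTT, 0.02% Tween-20, 0.1% BSA. CFP/YFP ratio read after 45 min at room temperature; pre-read flags interference.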
miR-21 reporter = raises the signal of a miR-21 reporter | Potency, µM (titrated, usually from 38.3 µM), for the others: at the highest dose reporter change, positive = more light | 340,000 tested, under 10 active | HeLa miR-21 FLuc reporter, luciferase, 48 h | AID 2288; active = well fitted rising curve with a large enough effect; inconclusive = small, poorly fitted or top-dose-only effect; inactive = no such curve, though single readings can be large or run the other way;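 note: % of control where 0% means no effect; miR-21 action dims this reporter so a rising signal means less miR-21 action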
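HeLa cells endogenously expressing miR-21, stably carrying CMV-driven firefly luciferase with a downstream miR-21 binding site, 2000 cells/well. Titrations up to approximately 40 uM, 48 hours; luciferase luminescence read.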
GLA inh pH 4.5 = inhibitors of human alpha-galactosidase A at pH 4.5; P06280; purified enzyme, 4-MU-alpha-Gal fluorescence, pH 4.5; 230,000 tested, under 10 active; activity change, negative = inhibition, % at 105 µM; inconclusive = small, poorly fitted or top-dose-only inhibition, or a rising curve; inactive = flat fitted curve, though single readings scatter; no compound was filed as active;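 note: 0% = full activity with enzyme and -100% = basal without enzyme; dose as in the result columns while the protocol names 77 µM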
Target sequence (P06280 whole entry, looked up): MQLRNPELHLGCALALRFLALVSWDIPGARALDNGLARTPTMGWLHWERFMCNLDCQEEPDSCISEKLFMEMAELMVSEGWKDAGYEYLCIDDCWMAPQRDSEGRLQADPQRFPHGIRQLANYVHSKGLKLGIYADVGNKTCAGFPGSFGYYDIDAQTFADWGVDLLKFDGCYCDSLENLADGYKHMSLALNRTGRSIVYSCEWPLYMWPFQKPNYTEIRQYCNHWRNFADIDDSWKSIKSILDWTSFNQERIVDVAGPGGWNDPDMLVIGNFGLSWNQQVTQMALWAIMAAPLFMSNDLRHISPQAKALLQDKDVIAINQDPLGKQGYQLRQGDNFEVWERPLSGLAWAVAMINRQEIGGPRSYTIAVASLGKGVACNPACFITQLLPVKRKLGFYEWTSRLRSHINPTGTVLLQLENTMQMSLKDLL
Rango release inh = inhibition of RanGTP-driven Rango-importin beta dissociation; AID 540253; Potency, µM (highest dose often 46.1 µM), for inactives: at the highest dose activity change, negative = inhibition; O95149+P62826; 340,000 compounds, 0.071% hits; Biochemical FRET Rango-importin beta, RanGTP-induced dissociation; active means falling FRET ratio curve, often poorly fitted, with flat reads before Ran was added; inconclusive means other falling curves, or compound fluorescence or quenching; inactive means flat or rising ratio curve;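 note: potency is the fitted concentration of half-maximal effect; % of control where 0% means no effect; nearly all actives have a fitted effect of over 45% in size; -100% = wells without RanGTP and RCC1; the record marks most hits as doubtful in a second field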
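Compounds preincubate 5 min with complex of recombinant Rango and importin beta in PBS with 1 mM DTT. Ran (0.6 uM) loaded with 2 mM GTP plus 0.2 uM RCC1 starts dissociation; FRET is recorded 45 min later.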
Numbers without * were called inactive; ? = inconclusive; / = not tested or not shown; & = joins results of further samples; [ ] = dose if it differs, or a comment.

| structure | GLA inh pH 4.5 | Rango release inh | Rango-impB inh | miR-21 reporter |
| --- | --- | --- | --- | --- |
| O=C(CCCO)N/N=C/c1cc(Br)ccc1O | 0 | ? | ? | 12% |
| O=C(Cc1ccc(Cl)cc1)OCC(=O)N1CCCCCC1 | / | -21% | -1.0% | / |
| O=C(N/N=C/c1cccc(C(F)(F)F)c1)C1CCN(c2ncc(C(F)(F)F)cc2Cl)CC1 | 2 | -14% | 2.2% | -1% |
| CCOc1ccc(S(=O)(=O)Nc2nc3cc(OC)ccc3s2)cc1 | -2 | -2% | ? | 1% |
| CCCn1c(SCc2nc(N)nc(N3CCCCC3)n2)nc2c1c(=O)n(C)c(=O)n2C | 7 | -3% | 12% | -4% |
| Cc1ccc(S(=O)(=O)C2C(=O)NC3(C)CC2c2ccccc2O3)cc1 (centres undefined) | 2 | -9% | 4.2% | 11% |
| c1ccc(C2Nc3ccccc3C3OCCCC23)cc1 (centres undefined) | / | 12% | 0.6% | 4% |
| O=C(Nc1cccc2c1C(=O)NC2=O)c1ccc(N2C(=O)CCC2=O)cc1 | -3 | 1% | 0.8% | -2% |
| CN(Cc1ccccc1)C(=O)c1ccc(NC(=O)Cc2ccc(NC(=O)C3CCN(S(=O)(=O)c4cccc([N+](=O)[O-])c4)CC3)cc2)cc1 | / | 10% | -0.3% | / |
| Cc1cc(C)cc(N(CC(=O)Nc2ccc(C(F)(F)F)cc2)S(=O)(=O)c2c(C)[nH]c(=O)[nH]c2=O)c1 | / | 15% | 1.8% | 0%&-1% |
| O=C(CSc1nnc(-c2ccncc2)n1Cc1ccccc1)NCCc1ccccc1 | 3 | 14% | -1.3% | 4% |
| CC(NC(=O)Nc1nnc(C(F)(F)F)s1)(C(F)(F)F)C(F)(F)F | 2 | 5% | -7.2% | 29% |
| COc1ccc(Cc2nnc(NC(=O)C(C)C)s2)cc1 | 4 | -2% | -0.4% | -9% |
| CCCCn1c(N)c(N(CCOC)C(=O)COc2ccc(C(C)=O)cc2)c(=O)[nH]c1=O | / | 4% | 2.5% | / |
| COc1cc(O)cc(O)c1C(=O)/C=C/c1ccccc1 | -7 | 2% | -2.2% | 17% |
| CO/N=C/c1ccc(N2CCN(C(=O)c3ccc(Cl)cc3Cl)CC2)c([N+](=O)[O-])c1 | -29 | 1% | 0.8% | 27% |
| O=C(CCN1CCOCC1)N1CCCC(Nc2ccc(F)cc2)C1 (centres undefined) | / | 25% | 3.9% | -1% |
| CCOc1ccc(CCNC(=O)CS(=O)Cc2nc(-c3ccccc3C)oc2C)cc1OCC (centres undefined) | / | 8% | -4.0% | 0% |
| CCNC(=O)NC(=O)C(C)OC(=O)CCCc1nc2ccccc2s1 (centres undefined) | -10[21.1 µM] | -1% | 0.9% | 6% |
| Cc1ccc(S(=O)(=O)NNC(=O)Nc2cccc(F)c2)c(C)c1 | / | 1% | 1.1% | 0% |
| Cc1oc2cc3oc(=O)c(CCC(=O)NCc4ccccn4)c(C)c3cc2c1C | / | -10% | 3.0% | -16% |
| CC(=O)N(CCCCN1C(=O)c2ccccc2C1=O)c1ccc(C)cc1 | 4 | -13% | 3.2% | 0% |
| CCc1cc(=O)oc2cc(C)cc(OCC(=O)C(C)(C)C)c12 | -8 | -2% | 0.3% | 12% |
| C=CCOC(=O)C1=C[C@H](C2CCCCC2)C[C@H](OCc2ccc(CO)cc2)O1 | / | 17% | -4.3% | / |
| O=C(c1ccc(OC2CCN(CCc3ccccc3)CC2)cc1)N1CCCC(O)C1 (centres undefined) | 7 | 3% | 1.7% | -3% |
| OCC1(Cc2ccc(Cl)cc2)CCN(Cc2ccc(F)c(F)c2)CC1 | -7 | -6% | 0.6% | 1% |
| O=C1NCCN1C(=O)c1cccc(Cl)c1 | 9 | 2% | -5.4% | 0% |
| Cc1ccc(S(=O)(=O)n2cnc3ccccc32)cc1[N+](=O)[O-] | / | -7% | 1.1% | 3% |
| CC(=O)NCCn1c(SCC(=O)c2ccc(Cl)cc2)nc2ccccc2c1=O | 4 | 12% | -0.8% | -3% |
| O=C(CCCOc1ccccc1)Nc1ccc(Cl)cn1 | -1 | ? | 0.1% | -10% |
| Cc1cc(NC(=O)c2c(F)cccc2Cl)n(-c2nc3ccccc3[nH]2)n1 | -2 | 15% | -2.9% | 7% |
| COc1ccc(Nc2nccc(-c3ccc([N+](=O)[O-])cc3)n2)cc1 | / | -5% | 2.5% | -9% |
| COc1ccc(OC)c(-c2csc(NC(=O)C3CSC4(C)CCC(=O)N34)n2)c1 (centres undefined) | / | -6% | 1.7% | / |
| Cn1nc(-c2ccccc2)c(CN2CCN(c3ncccn3)CC2)c1Cl | 2 | -12% | -4.0% | 3% |
| CCOc1ccc(C(=S)N2CCCC2)cc1OC | 2 | 6% | 0.7% | -8% |
| Cc1ccsc1/C=N/NC(=O)CNC(=O)c1ccccc1 | / | 9% | 1.1% | -10% |
| N#Cc1cccc(NC(=O)COC(=O)c2ccc3c(=O)n4c(nc3c2)CCC4)c1 | -5 | / | / | 2% |
| O=C(CN1CCOCC1)NN=C(c1ccccc1)c1ccccc1 | 6 | 22% | -2.5% | -4% |
| CN(C)S(=O)(=O)c1cccc(CNCC2COc3ccccc3O2)c1 (centres undefined) | / | 0% | 3.7% | 0% |
| COc1ccc(CN(C(=O)c2cccs2)c2nccs2)cc1OC | 3 | 9% | 4.6% | -2% |
| COc1ccc2c(CC(=O)Nc3ncc(C)s3)coc2c1 | 1 | -15% | -0.3% | -39% |
| CCc1nn(CCCN2CCN(c3cccc(Cl)c3)CC2)c(=O)n1CCOc1ccccc1 | -1 | -13%&4% | -4.0%&-2.1% | 29%&22% |
| CN1CCCN(S(=O)(=O)c2ccc3ccccc3c2)CC1 | / | -1% | 0.6% | 2% |
| CC(=O)N1CCOc2ccc(S(=O)(=O)N3CC(C)CC(C)C3)cc21 (centres undefined) | / | 7% | -3.9% | 0% |
| COc1ccc(NC(=O)c2cccs2)cc1 | -8 | 3% | -0.6% | -51% |
| COc1ccc(C)cc1Nc1nc(C)nc2c1oc1ccccc12 | / | -5% | 0.1% | 3% |
| COc1ccc(C(=O)NCC2(c3ccc(OC)c(OC)c3)CCCC2)c(OC)c1 | / | 8% | 0.3% | 4% |
| CC(C)CC(=O)Nc1cccc(-c2nc3ccccc3o2)c1 | -5 | 3% | 0.6% | -27% |
| COc1ccc2nc(SCC(=O)NC3CCCc4ccccc43)[nH]c2c1 (centres undefined) | ? | -19% | 2.3% | 16% |
| CCn1c(C)cc(C(=O)CSc2nnnn2C2CCCC2)c1C | / | 17% | -1.3% | / |

Quoted from the listing, three compounds:
| structure | GLA inh pH 4.5 | Rango release inh | Rango-impB inh | miR-21 reporter |
| --- | --- | --- | --- | --- |
| COc1ccc2c(CC(=O)Nc3ncc(C)s3)coc2c1 | 1 | -15% | -0.3% | -39% |
| CCc1nn(CCCN2CCN(c3cccc(Cl)c3)CC2)c(=O)n1CCOc1ccccc1 | -1 | -13%&4% | -4.0%&-2.1% | 29%&22% |
| CN1CCCN(S(=O)(=O)c2ccc3ccccc3c2)CC1 | / | -1% | 0.6% | 2% |

(further entries)
| structure | GLA inh pH 4.5 | Rango release inh | Rango-impB inh | miR-21 reporter |
| --- | --- | --- | --- | --- |
| CC(=O)c1ccc(OCCCC(=O)Nc2ccc(S(=O)(=O)N3CCOCC3)cc2)cc1 | / | 1% | -1.3% | / |
| C=CCNC(=O)CN1CCC(c2nc3cc(C)c(C)cc3[nH]2)CC1 | / | -10% | -0.2% | -2% |
| CC(=O)c1c(C)nc2ccc(C)cc2c1-c1ccccc1 | -9 | 4% | 0.1% | 3% |
| O=C(Oc1ccc(/C=N/NC(=O)c2ccccc2O)cc1)c1ccccc1 | -1 | 11% | 3.3% | 1% |
| CC(NC(=O)C(=O)N1CCOCC1)C(c1cccs1)N1CCN(c2ccccc2F)CC1 (centres undefined) | / | -1% | -0.7% | 0% |
| Cc1cccc(NC(=O)c2ccc(NCCc3ccccc3)c([N+](=O)[O-])c2)c1 | 0 | 1% | 0.1% | -7% |
| CCn1c(CC(C)C)n[nH]c1=S | 7 | -5% | -1.5% | 2% |
| CCOC(=O)C1(Cc2ccc(Cl)cc2)CCN(C(=O)c2ccoc2)CC1 | 8 | -9% | 0.0% | -8% |
| CCc1cccc(NC(=O)C2CCCN2S(=O)(=O)c2ccc3c(c2)CC(C)N3C(C)=O)c1 (centres undefined) | / | 12% | -0.6% | 10% |
| Cc1ccc(NC(=O)c2nc[nH]c2C(=O)N[C@H](C)c2ccccc2)cc1 | / | 2% | 5.7% | / |
| NC(=O)c1ccc(-n2nc(C(F)(F)F)c3c2CCCC3)cc1 | 0 | 6% | 4.1% | -46% |
| NCCS(=O)(=O)NC1CCCCC1 | 0 | 3% | 5.4% | 0% |
| COc1cc(C(=O)NCC(=O)NCC2COc3ccccc3O2)cc(OC)c1OC (centres undefined) | / | -15% | 0.7% | / |
| CCCCN1C(=O)C2(OCCCO2)c2cccc(C)c21 | / | 0% | -0.8% | 5% |
| COc1ccc(N2C(=O)CC(Nc3ccc(C)cc3)C2=O)cc1 (centres undefined) | 0 | 2% | 0.9% | 0% |
| CCOc1ccc(Nc2oc(-c3ccc(Cl)cc3)nc2C#N)cc1 | -5 | -5% | 2.6% | -26% |
| COc1ccc(CC(=O)OCC(=O)N2CCc3ccccc32)cc1OC | / | -12% | -0.9% | / |
| CCOC(=O)c1ccc(NC(=O)CCCN2C(=O)NC3(CCCC3)C2=O)cc1 | / | -6% | 2.2% | / |
| O=C(O)c1ccn2c(C(=O)c3ccccc3)c(-c3ccccc3)cc2c1 | -6 | -29% | ? | -13% |
| Cc1nn(CC(=O)Nc2sc3c(c2C#N)CCC(C(C)(C)C)C3)c(C)c1[N+](=O)[O-] (centres undefined) | -1 | -3% | -0.6% | -4% |

Part of the list above in order of length of the SMILES, rising.
| structure | GLA inh pH 4.5 | Rango release inh | Rango-impB inh | miR-21 reporter |
| --- | --- | --- | --- | --- |
| CCCCN1C(=O)C2(OCCCO2)c2cccc(C)c21 | / | 0% | -0.8% | 5% |
| COc1ccc(N2C(=O)CC(Nc3ccc(C)cc3)C2=O)cc1 (centres undefined) | 0 | 2% | 0.9% | 0% |
| COc1ccc(CC(=O)OCC(=O)N2CCc3ccccc32)cc1OC | / | -12% | -0.9% | / |
| O=C(O)c1ccn2c(C(=O)c3ccccc3)c(-c3ccccc3)cc2c1 | -6 | -29% | ? | -13% |
| COc1cc(C(=O)NCC(=O)NCC2COc3ccccc3O2)cc(OC)c1OC (centres undefined) | / | -15% | 0.7% | / |
| Cc1nn(CC(=O)Nc2sc3c(c2C#N)CCC(C(C)(C)C)C3)c(C)c1[N+](=O)[O-] (centres undefined) | -1 | -3% | -0.6% | -4% |

Next section:
| structure | GLA inh pH 4.5 | Rango release inh | Rango-impB inh | miR-21 reporter |
| --- | --- | --- | --- | --- |
| COc1ccc(NC(=O)c2nc[nH]c2C(=O)NCc2ccccc2)cc1 | / | -17% | -4.7% | / |
| CS(=O)(=O)N(CC(=O)Nc1c(F)cccc1F)Cc1ccccc1 | / | 3% | -2.1% | 0% |
| Cc1ccccc1C1c2[nH]c3ccccc3c2CCN1C(=O)c1ccc(=O)n(C)n1 (centres undefined) | -10 | -1% | -0.7% | 0% |
| CCCCOP(=O)(c1ccc(N(C)C)cc1)C(O)c1cc(OC)c(OC)c(OC)c1 (centres undefined) | 0 | 12% | 5.0% | 1% |
| O=C(c1ccc([N+](=O)[O-])o1)N1CCOCC1 | 5 | ? | -4.7% | 18% |
| COc1ccc(NC(=O)/C=C/c2cccc(Br)c2)cn1 | / | -6% | ? | -1% |
| CC1CCC(C(C)C)C(OC(=O)C[n+]2cc(-c3ccc(Cl)cc3)n3c2CCC3)C1 (centres undefined) | -6 | -19% | 2.4% | 28% |
| COCC(C)n1c(COc2ccccc2F)nnc1SCc1c(C)noc1C (centres undefined) | -1 | -15% | 1.4% | -3% |
| CN(C)C(=O)c1cc2cc(Br)ccc2s1 | 1 | 8% | -0.2% | -21% |
| CC1CC(N(C(=O)c2ccco2)c2ccccc2)c2ccccc2N1 (centres undefined) | -9 | 11% | 0.0% | 3% |
| CCn1c(CNC(=O)c2ccccc2F)nnc1SCC(=O)Nc1nncs1 | / | -12% | -2.5% | 5% |

From PubChem BioAssay

This is a subset (hit frequency here may not be typical).
